Menin MLL FP FL – qHTS Assay for Inhibitors Targeting the Menin-MLL Interaction in MLL Related Leukemias: Competition With Fluorescein Labeled MLL-derived Peptide; FP activity change, % at 61.4 µM; Fluorescence polarization, fluorescein-MLL peptide displacement from menin; AID 1766, 2009; 290,000 tested, under 10 active; inconclusive = falling polarisation curve, or a change in total fluorescence; inactive = total fluorescence flat and polarisation flat or rising; no compound was filed as active; the % refers to the polarisation; negative = inhibition;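 note: % of control where 0% means no effect; inhibitors lower the polarisation; unlabelled MLL peptide was the positive control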
TRPV1 potentiator – HTS Assay for Compounds that Act as Potentiators of the Vanilloid Receptor 1; potentiation, % at 8.33 µM; 320,000 compounds, 0.02% hits; TRPV1-expressing cells, Fluo-8 calcium influx, capsaicin EC20 potentiation; host cell line not named in the record; control for the full effect not named in the record; Transient receptor potential cation channel subfamily V member 1 (Homo sapiens), Q8NER1; active means potentiation above 80%; inconclusive means 30% to 80%; inactive means below 30%; note: 0% is about no effect
Target sequence (Q8NER1 whole entry, looked up): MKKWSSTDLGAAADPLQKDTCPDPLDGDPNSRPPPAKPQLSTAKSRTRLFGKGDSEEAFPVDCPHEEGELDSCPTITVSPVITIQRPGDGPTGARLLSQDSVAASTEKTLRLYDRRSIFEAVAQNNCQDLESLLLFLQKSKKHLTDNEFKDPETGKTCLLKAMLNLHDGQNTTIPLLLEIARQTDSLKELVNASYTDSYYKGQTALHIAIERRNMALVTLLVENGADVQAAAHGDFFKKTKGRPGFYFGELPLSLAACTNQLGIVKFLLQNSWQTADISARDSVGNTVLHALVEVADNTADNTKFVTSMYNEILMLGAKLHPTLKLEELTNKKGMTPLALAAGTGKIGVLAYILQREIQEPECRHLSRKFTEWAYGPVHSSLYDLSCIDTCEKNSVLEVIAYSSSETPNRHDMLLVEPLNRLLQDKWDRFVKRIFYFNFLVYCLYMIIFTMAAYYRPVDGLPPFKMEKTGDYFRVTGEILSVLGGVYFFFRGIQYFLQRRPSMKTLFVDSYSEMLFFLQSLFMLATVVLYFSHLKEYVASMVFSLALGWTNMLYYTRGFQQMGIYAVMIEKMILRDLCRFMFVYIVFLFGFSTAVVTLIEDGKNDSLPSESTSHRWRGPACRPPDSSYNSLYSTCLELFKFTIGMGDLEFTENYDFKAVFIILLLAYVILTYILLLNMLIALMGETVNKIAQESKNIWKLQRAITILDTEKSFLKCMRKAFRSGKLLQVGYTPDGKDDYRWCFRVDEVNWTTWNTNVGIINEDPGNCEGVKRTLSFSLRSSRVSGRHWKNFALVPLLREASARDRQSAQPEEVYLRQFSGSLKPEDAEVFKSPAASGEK
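TRPV1-expressing cells were cultured overnight at 35.5C and loaded with Fluo-8 calcium dye for 40 to 90 min at room temperature. After a 10 s baseline, compound was added and calcium influx was read kinetically for 3 min (ex 480/em 520 nm).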
Sfp inh – qHTS Assay for Inhibitors of Bacillus subtilis Sfp phosphopantetheinyl transferase (PPTase). Biochemical Sfp PPTase activity, qHTS. Potency, µM, for inactives: max response, negative = inhibition, most hits filed as inhibitors. 310,000 compounds, 3.5% hits. 4'-phosphopantetheinyl transferase ffp (Bacillus subtilis), Q9F4F7; active = well fitted inhibition curve with a large enough effect; inconclusive = small, poorly fitted or top-dose-only effect, or another doubt; inactive = no such curve, though single readings can be large or run the other way;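 note: the enzyme is Sfp with the accession as filed and its product quenches rhodamine fluorescence; potency is the fitted concentration of half-maximal effect; 0% = enzyme reaction without inhibitor and -100% = no enzyme wells; top concentration of the series not given in the record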
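Fluorescence-quenching assay with 15 nM Sfp, 5 uM rhodamine-CoA and 12.5 uM BHQ-2-labelled ybbR peptide in pH 7.6 Hepes/MgCl2 buffer. Enzyme was pre-incubated with compound for 15 min at room temperature. Rate was taken from the 30-min fluorescence change (525/598 nm).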
gsp agonist – qHTS for Agonist of gsp, the Etiologic Mutation Responsible for Fibrous Dysplasia/McCune-Albright Syndrome: qHTS | 340,000 compounds, 0.13% hits | Potency, µM (top dose mostly 76.9 µM), inactives show at the top dose activation (cAMP increase), most hits filed as activators | AID 624287, 2012 | gsp mutant cells, cAMP HTRF, 30 min; control for the full effect not named in the record; active = well fitted activation curve with a large enough effect; inconclusive = small, poorly fitted or top-dose-only effect, or another doubt; inactive = no such curve, though single readings can be large or run the other way; cell line not stated here;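 note: phosphodiesterase inhibitor Ro 20-1724 added with compounds to block cAMP breakdown; potency is the fitted concentration of half-maximal effect; nearly all actives have a fitted effect of over 60% in size; about a fifth of the inactives were tested at one dose only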
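Cells stably selected in G418 were plated at 2000/well, grown 16-24 hr, then given compounds in DMSO with the PDE inhibitor […] (300 uM solution added) for 30 min at 37C; cAMP was read by HTRF.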
gsp antagonist – qHTS for Antagonists of gsp, the Etiologic Mutation Responsible for Fibrous Dysplasia/McCune-Albright Syndrome: qHTS; gsp-mutant cells, cAMP HTRF, 30 min; control for the full effect not named in the record; Potency, µM (doses to about 76.9 µM), without a hit: top-dose activity change, negative = inhibition, most hits filed as inhibitors; 340,000 compounds, 0.4% hits; active = falling curve of any shape with a large fitted effect; inconclusive = falling curve, mostly with a smaller effect; inactive = flat or rising curve; cell line not stated here;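 note: intracellular cAMP measured with PDE inhibitor Ro 20-1724 present during compound exposure; potency is the fitted concentration of half-maximal effect; % is set by controls: 0 for no effect and ±100 for the full control effect; nearly all actives have a fitted effect of over 65% in size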
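Cells, 2000/well, grown 16–24 h in DMEM 10% FBS with 0.5 mg/ml G418, then compounds plus […] (300 uM addition stock), 30 min at 37C. cAMP read by HTRF (cAMP-d2 and anti-cAMP antibody-K in lysis buffer) after 30 min RT.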
ClpP mod – qHTS Assay for Activators of ClpP. 340,000 compounds, 1.9% hits. Potency, µM (highest dose often 57.5 µM), inactives show at the top dose activity change, negative = active. purified B. subtilis ClpP, FRET peptide cleavage, 20 min; active = well fitted falling curve with a large enough effect; inconclusive = small, poorly fitted or top-dose-only effect; inactive = no such curve, though single readings can be large or run the other way; note: potency is the fitted concentration of half-maximal effect; the source files actives as falling curves though it sought activators and does not explain the sign; nearly all actives have a fitted effect of over 65% in size; many hits overshoot -100%
Target sequence (P80244 whole entry, looked up): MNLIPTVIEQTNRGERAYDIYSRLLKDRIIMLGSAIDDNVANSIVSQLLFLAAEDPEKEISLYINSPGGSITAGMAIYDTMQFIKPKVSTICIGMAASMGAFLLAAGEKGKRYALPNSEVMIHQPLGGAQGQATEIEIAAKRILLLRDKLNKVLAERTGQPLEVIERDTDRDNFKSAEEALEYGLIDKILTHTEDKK
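ClpP 10 microg/mL final, pH 8 Tris/KCl buffer with BSA, glycerol, Tween-20; compound pinned in; FRET-FV substrate; RT 20 min; Ex320/Em430; ΔFRET vs ADEP 5.8 microM, DMSO, no enzyme.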
D2 potentiator – Beta-Arrestin HTS for Positive Allosteric Modulators of the Human D2 Dopamine Receptor: Potentiators; 360,000 compounds, 0.23% hits; potentiation, % (test concentration not listed); D(2) dopamine receptor (Homo sapiens), P14416; DiscoveRx D2 beta-arrestin cells, luminescence, 90 min; 100% = 57 uM dopamine signal; AID 624464, 2012; active = potentiation of 50% or more; inconclusive = 30% to 50%; inactive = 30% or less;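 note: compound concentration not given in the record; tested on top of an EC20 dose of dopamine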
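PathHunter D2 cells, attached overnight at 37 deg C, received compound in DMSO plus dopamine at EC20 (50 nM final) for 90 min at 37 deg C. Beta-arrestin recruitment was read as luminescence after 1 h with detection reagent at ambient temperature.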
* = called active by the depositor; ? = inconclusive; · = not tested or not shown; [ ] = dose if it differs, or a comment.

SMILES	gsp agonist	Menin MLL FP FL	D2 potentiator	Sfp inh	TRPV1 potentiator	gsp antagonist	ClpP mod
C/C(CC(=O)NC(C)(C)C)=N\NC(=O)c1ccco1	13.1%	·	12.3	-2.8%	5.1	11.8%	3.4%
Brc1ccccc1CN1CCN(Cc2c[nH]c3ccccc23)CC1	7.1%[15.4 µM]	·	-15.1	·	·	4.9%	·
Cc1ccc(C(=O)Nc2ccc(NC(=O)c3ccc(C)o3)cc2)o1	12.3%	3.2	-0.8	-11.5%	-4.3	-8.8%	·
CC12CCC(C)(O1)C1C(=O)N(c3nccs3)C(=O)C12 (stereo not given)	2.5%	·	2.3	·	·	-1.8%	·
COc1ccc(C(C)(C)C)cc1NC(=O)COC(=O)C(C)C	9.3%[15.4 µM]	-5.7	-16.9	-8.5%	-24.6	6.8%	-21.5%
O=S(=O)(c1ccc(Cl)cc1)N1CCCC(C(F)(F)F)C1 (stereo not given)	-46.8%[inhibitor]	-1.5	-8.0	13.6%	0.2	-17.0%	1.9%
O=C(CS(=O)(=O)c1ccccc1)c1cc2ccccc2oc1=O	-48.6%[inhibitor]	4.5	-1.9	3.8%	7.9	-11.5%	-10.1%
O=C(CCCc1nc2ccccc2s1)Nc1ccc(N2CCOCC2)cc1	-46.8%[inhibitor]	-2.2	-1.9	12.6%	-2.5	-6.9%	0.1%
O=C1CCc2cc(S(=O)(=O)Nc3ccc(F)cc3)cc3c2N1CC3	-1.9%[15.4 µM]	·	-3.7	·	27.5	-0.6%	·
CCOc1ccc(N2CC(C(=O)NCc3cccc(C)c3)CC2=O)cc1 (stereo not given)	30.0%	2.2	-0.5	4.3%	-3.8	-0.5%	-4.3%
COc1ccc(CNc2nc(NCc3ccc(OC)c(OC)c3)n(C(=O)c3cccs3)n2)cc1OC	-43.8%	0.7	0.3	?	1.1	-3.7%	-2.2%
COc1ccc(NC(=O)CSc2nc3sc(C)cc3c(=O)n2C)cc1	0.8%	·	-2.5	14.0%	7.2	-3.2%	·
Cc1ccc(S(=O)(=O)N2CCN(C(=O)COC(=O)c3ccc(Cl)c(S(N)(=O)=O)c3)CC2)c(C)c1	-20.8%	·	-9.3	·	·	-17.7%	0.9%
Cc1ccc(-c2nnc(-c3ccccc3)o2)cc1	4.0%	-1.0	-6.9	3.1%	7.6	1.1%	?
O=C(c1cccs1)N1C[C@H](O)[C@@H](n2cc(C3CC3)nn2)C[C@@H]1c1ccccc1	?	·	-4.8	·	·	·	-5.4%
O=S(=O)(Nc1cccc(S(=O)(=O)N2CCCC2)c1)c1ccc(F)cc1	?	·	20.2	·	-4.4	2.8%	-3.3%
c1ccc(Cn2nnc3c(NCC4CC4)ncnc32)cc1	2.8%	·	7.0	·	·	·	-0.6%
COc1cc(OC)cc(C(=O)N[C@H](C(=O)OCC(=O)Nc2ccc(C)cc2C)C(C)C)c1	3.3%[15.4 µM]	2.3	-29.1	3.3%	11.3	-10.7%	-2.3%
CC(C)(C)C(=O)COC(=O)C1CC(=O)N(c2ccccc2)C1 (stereo not given)	-0.8%	3.7	-7.2	3.3%	-14.2	-3.6%	0.3%
CCCCC(=O)Nc1cc([N+](=O)[O-])ccc1Cl	-39.2%[inhibitor]	4.1	4.4	9.3%	-6.7	15.6%	-2.9%
COC(=O)[C@H](Cc1ccccc1)NC(=O)NCc1cccs1	30.6%	1.5	-1.3	12.6%	-15.1	-1.5%	-1.2%
N#Cc1c(N)nc2c(c1N)CC(CCl)O2 (stereo not given)	1.7%[15.4 µM]	-25.9	-8.9	-8.9%	-9.0	-4.9%	-1.2%
Cc1csc(NC(=O)CSc2ncc(-c3ccccc3)[nH]2)n1	-6.0%[15.4 µM]	7.1	-8.6	10.8%	-9.9	-15.2%	14.1%
CC1CCN(C(=O)CSc2nnc(CNC(=O)c3ccc(S(=O)(=O)N(C)C)cc3)o2)CC1	-58.2%[inhibitor]	0.0	-13.8	0.7%	0.9	4.3%	-1.3%
COc1ccc(CCNC(=O)c2cc(S(=O)(=O)N3CCOCC3)ccc2N2CCCC2)cc1OC	10.1%[15.4 µM]	·	-13.0	·	4.9	-10.5%	-1.1%
CCOc1ccc(C(C)=O)cc1COc1cccnc1[N+](=O)[O-]	-2.9%	-0.2	0.4	8.6%	-3.8	-5.2%	·
COc1ccccc1NCc1ccc([N+](=O)[O-])s1	9.9%	·	6.3	-29.9%	14.4	0.4%	-1.1%
COc1ccc(S(=O)(=O)NCC2CCCN(C(=O)c3ccccc3)C2)cc1 (stereo not given)	?	0.1	-10.1	1.1%	1.5	4.0%	-0.1%
CC(=Nc1ccccc1C(F)(F)F)c1ccncc1	-67.3%[inhibitor][15.4 µM]	-3.7	-5.9	13.3%	2.5	12.9%	·
CN(C)c1ccc(/C=N/NC(=O)c2ccn(C)n2)cc1	-11.5%[15.4 µM]	3.7	5.0	-4.3%	-6.7	-21.9%	0.3%
CCC(CC)C(=O)N1CC(=O)Nc2ccc(Br)cc2C1c1ccccc1 (stereo not given)	-37.2%	-0.6	-4.4	10.7%	-10.7	-12.1%	1.9%
Cc1ccccc1C1CC(=O)NC2=C1C(=O)CCC2 (stereo not given)	-3.9%	-0.6	6.4	9.5%	·	7.3%	-4.7%
COc1ccc(CNC(=O)CNC(=O)c2ccc(Br)o2)cc1OC	20.5%	·	-10.8	10.7%	0.5	10.9%	-1.1%
Cc1cccc(-n2cnc3cc(C(=O)NCCN4CCOCC4)ccc32)c1	-21.7%	·	-7.7	·	·	·	-3.2%
C=CCNC(=O)C1CC(=O)N(c2ccc(OCC(=O)Nc3ccc(CC)cc3)cc2)C1 (stereo not given)	10.2%	·	-0.3	17.1%	-3.9	5.1%	2.3%
CCc1noc(C)c1C(=O)N1CCN(S(=O)(=O)c2c(C)c(C)cc(C)c2C)CC1	2.8%	·	22.7	·	4.1	-6.4%	0.6%
O=c1c2ccccc2nnn1CSc1nnc(COc2ccc(Cl)cc2)n1Cc1ccco1	-18.2%	-0.7	-5.4	-25.1%	-11.0	-18.9%	-2.3%
COC(=O)c1cccc(NC(=O)C(C)(C)C)c1	-24.9%	-1.7	-3.2	-0.2%	0.1	4.9%	·
CC(=O)c1ccc(NC2c3ncccc3C(=O)N2Cc2ccc(F)cc2)cc1 (stereo not given)	-33.9%[inhibitor]	-2.1	-8.2	18.8%	-26.2	3.5%	?
COc1ccccc1N=Nc1c(C)n[nH]c1C	4.5%	5.0	-0.1	3.8%	-8.8	0.8%	-0.3%
COc1ccc(NC(=O)CSc2nnc(CCC(=O)Nc3ccc(C)c(Cl)c3)n2C)cc1	-2.6%	0.8	-19.5	-4.6%	-5.7	-1.6%	-0.5%
C=CCn1c(CC(C)(C)C)nc2ccccc21	16.9%[15.4 µM]	-0.9	-2.7	5.2%	6.5	4.3%	·
CN(CC(=O)Nc1ccc(F)cc1)C(=O)COC(=O)C1CCN(c2ccc(C(F)(F)F)cn2)CC1	20.4%[15.4 µM]	·	-8.3	·	-19.9	-15.3%	?
CC(C)c1cccc(C(C)C)c1NC(=O)COC(=O)c1ccc(OCC(=O)Nc2cccc(C(F)(F)F)c2)cc1	-49.3%[inhibitor]	8.1	2.2	13.3%	15.5	7.4%	-9.8%
COc1cc(NS(=O)(=O)c2ccc(NC(=O)/C=C/C(=O)O)cc2)nc(OC)n1	-4.8%[15.4 µM]	-9.1	-3.5	-4.9%	11.1	5.2%	-0.9%
CCOC(=O)C1(C(=O)OCC)C(c2ccccc2)CC(O)N1C(C)=O (stereo not given)	1.3%[15.4 µM]	-1.0	-0.4	15.2%	8.9	11.3%	·
N#Cc1cccc(NC(=O)CSc2sc3c(O)cc(=O)[nH]c3c2C#N)c1	6.7%[15.4 µM]	21.6	-7.6	?	7.5	-13.8%	·
COc1ccc(NC(=S)N(CCc2nc3cc(C)c(C)cc3[nH]2)Cc2cccnc2)cc1	5.5%	3.3	-15.7	-14.2%	-21.7	4.9%	-1.0%
Cc1cc(C(=O)CN2C(=O)C(=O)N(Cc3ccco3)C2=O)c(C)n1CCc1ccccc1	1.2%	·	-7.6	·	-24.1	11.7%	0.5%
COc1cc(N2CCOCC2)ncn1	20.9%	2.5	3.3	3.6%	·	10.7%	0.5%
CC(C)(C)c1ccc(C(=O)NC(Cc2ccccc2)C(=O)O)cc1 (stereo not given)	·	2.8	·	29.7%	-17.0	·	·
CC(=O)c1ccc(OCc2cc(C(=O)NCCc3ccc(Cl)cc3)no2)cc1	?	0.5	2.2	13.9%	1.9	14.2%	0.5%

Source: PubChem BioAssay (National Center for Advancing Translational Sciences (NCATS))

Random draw from the library. About 5.1% of those tested had a hit in this group.
